StopGo reporter = lowers the luciferase signal of an FMDV 2A StopGo reporter; human cells with a luciferase reporter of 2A StopGo recoding; control for the full effect not named in the record; Potency, µM (top dose mostly 57.9 µM), inactives show top-dose signal change, negative = less light; 410,000 tested, 1.2% active; active = well fitted falling curve with a large enough effect; inconclusive = small, poorly fitted or top-dose-only effect; inactive = no such curve, though single readings can be large or run the other way; tested in HEK293T cells; further: on the % scale 0 is the no-effect control and ±100 the full control effect; nearly all actives have a fitted effect of over 45% in size; luciferase light after 4 h
Lassa entry inh = blocks Lassa virus binding to or entry into cells | Lassa virus pseudotype entry inhibition, cell reporter; control for the full effect not named in the record | Potency, µM (top dose mostly 37.9 µM), without a hit: at the top dose activity change, negative = inhibition, actives largely listed as inhibitors | 300,000 tested, 1.2% active | AID 540256; active means well fitted inhibition curve with a large enough effect; inconclusive means small, poorly fitted or top-dose-only effect, or effect the other way; inactive means flat fitted curve, though single readings scatter; tested in HEK293 cells; further: on the % scale 0 is the no-effect control and ±100 the full control effect; nearly all actives have a fitted effect of over 50% in size; luciferase read-out
RE007 growth inh = less growth of the S. pombe RE007 Vpr strain | S. pombe RE007 Vpr strain, BacTiter-Glo ATP luminescence, 24 h; control for the full effect not named in the record | Potency, µM (top dose mostly 92.2 µM), without a hit: at the top dose activity change, negative = less growth | 360,000 tested, 0.21% active | AID 651644; active = well fitted falling curve with a large enough effect; inconclusive = small, poorly fitted or top-dose-only effect; inactive = no such curve, though single readings can be large or run the other way;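 further: on the % scale 0 is the no-effect control and ±100 the full control effect; nearly all actives have a fitted effect of over 50% in size; the assay follows cell death caused by Vpr and the record does not say whether a fall means rescue or toxicity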
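Fission yeast strain RE007, carrying one chromosomally integrated HIV-1 vpr copy, was seeded at OD 0.01 in PMG+AL medium with 23 nL pinned compound. After 24 h at 30 °C and 99% humidity, viability was read by BacTiter-Glo luminescence.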
MARV entry inh = inhibitors of Marburg virus binding or cell entry. Marburg virus pseudotyped entry inhibition, cell reporter; control for the full effect not named in the record; about a third of the inactives were read at about 46 µM. Potency, µM (doses to about 37.8 µM), for inactives: top-dose activity change, negative = inhibition, most hits filed as inhibitors. 300,000 tested, 1.8% active. AID 540276; active = well fitted inhibition curve with a large enough effect; inconclusive = small, poorly fitted or top-dose-only effect, or effect the other way; inactive = flat fitted curve, though single readings scatter; tested in HEK293 cells; about a fifth of its hits are not listed in these tables; further: on the % scale 0 is the no-effect control and ±100 the full control effect; luciferase read-out
NS1 function inh = blocks influenza NS1 protein function. S. cerevisiae slowed by influenza A NS1, growth recovery by OD600. Potency, µM (highest dose often 46.1 µM), for the others: top-dose activity, positive = more growth. 270,000 tested, 0.4% active. AID 2326; further: actives are rising curves; nearly all actives have a fitted effect of over 50% in size
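Recovery from NS1-induced slow growth read by OD600 in budding yeast switched to galactose assay medium (pH 6.0, -URA) at 1:100 dilution. Compound 23 nl per well; the matching strain lacking NS1 serves as control.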
Cruzain inh noDet = cruzain (T. cruzi) inhibition without detergent | P25779 | purified cruzain, Z-FR-AMC fluorescence, no detergent | Potency, µM, without a hit: max response, negative = inhibition, hits mostly inhibitors | 200,000 tested, 2.3% active | AID 1476; active means well fitted curve in the direction sought with a large enough effect; inconclusive means small, poorly fitted or top-dose-only effect, or another doubt; inactive means no such curve, though single readings can be large; an effect the other way counts as inactive or inconclusive;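 further: plate controls were enzyme without inhibitor for no effect and buffer without enzyme for full effect; nearly all actives have a fitted effect of over 40% in size; top concentration of the series not given in the record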
Target sequence (P25779 123-467 limits assumed): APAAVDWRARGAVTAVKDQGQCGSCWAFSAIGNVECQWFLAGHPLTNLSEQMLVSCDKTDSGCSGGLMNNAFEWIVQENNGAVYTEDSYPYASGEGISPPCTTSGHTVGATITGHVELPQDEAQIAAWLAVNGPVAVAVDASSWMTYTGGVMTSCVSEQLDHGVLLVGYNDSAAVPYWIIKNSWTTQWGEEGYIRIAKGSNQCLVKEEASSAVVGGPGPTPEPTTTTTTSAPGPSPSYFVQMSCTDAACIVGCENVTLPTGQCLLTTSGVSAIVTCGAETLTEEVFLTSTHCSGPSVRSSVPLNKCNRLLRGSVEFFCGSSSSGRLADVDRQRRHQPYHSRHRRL
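Detergent-free condition (0.00005% Triton X-100) in acetate buffer pH 5.5 with DTT. 1.5 nM enzyme and compound were pre-mixed 15 min, then 2 uM Z-FR-AMC substrate added; reaction progress from fluorescence change between first and third reads (60 s).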
Cruzain Triton = cruzain (T. cruzi) inhibition with detergent | P25779 | purified cruzain, Z-FR-AMC fluorescence, 0.01% Triton | Potency, µM, for inactives: max response, negative = inhibition, actives largely listed as inhibitors | 200,000 tested, 0.43% active | AID 1478; active means well fitted curve in the direction sought with a large enough effect; inconclusive means small, poorly fitted or top-dose-only effect, or another doubt; inactive means no such curve, though single readings can be large; an effect the other way counts as inactive or inconclusive;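 further: plate controls were neutral wells for no effect and buffer without enzyme for full effect; nearly all actives have a fitted effect of over 40% in size; top concentration of the series not given in the record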
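Enzyme 1.5 nM, Z-FR-AMC 2 uM, NaOAc 100 mM pH 5.5, DTT 5 mM, Triton X-100 0.01%; 15 min RT compound preincubation; kinetic ex360/em450, 60 s delta.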
SARS PLP yeast = SARS-CoV PLP inhibition in yeast. S. cerevisiae expressing SARS-CoV PLpro, growth rescue; control for the full effect not named in the record. Potency, µM (titrated, usually from 32.9 µM), inactives show at the top dose activity, positive = growth rescue. 330,000 tested, 0.19% active. AID 485353; further: 0% is about no effect; nearly all actives have a fitted effect of over 55% in size; growth read by luminescence after 48 h
Active calls of the source: *; u = inconclusive; x = no result given; & = joins results of further samples; [ ] = another dose, or the depositor's remark. Unless noted, the call rests on the fitted dose curve; in most records, active means well fitted rising curve with a large enough effect; inconclusive means small, poorly fitted or top-dose-only effect; inactive means no such curve, though single readings can be large or run the other way. Potency means the concentration at half of the fitted maximal effect.

SMILES | StopGo reporter | Lassa entry inh | RE007 growth inh | MARV entry inh | NS1 function inh | Cruzain inh noDet | Cruzain Triton | SARS PLP yeast
Cn1cnnc1SCC(=O)NNC(=O)c1ccc([N+](=O)[O-])cc1 | -6.1% | -8.7%[46.1 µM] | -0.1% | 1.0%[46.1 µM] | x | x | x | 16.8%
CC(c1ccccc1)n1cc(C(=O)NCc2cccnc2)nn1 (stereo not given) | 12.9% | -12.8% | 5.3% | 16.1%[46.1 µM] | 4.5% | 1.0% | 2.4% | 1.4%
COc1ccc(NC(=O)NCc2ccc(Cl)cc2)cc1 | 4.2% | -5.9%[46.1 µM] | -2.8% | 22.4%[46.1 µM] | -7.1% | x | x | -2.0%
COc1ccc(-c2[nH]ncc2CNCc2cc(C)n(C)n2)c(F)c1 | -17.8% | x | -17.3% | x | -0.1% | x | x | 0.7%
Cc1ccc(NC(=O)CCC(=O)OCc2ccc(Br)cc2)cc1 | 0.2% | -6.2% | -14.4% | -0.4% | -0.8% | 1.6% | -4.5% | 16.2%
OCc1ncccc1O | -1.4% | x | 12.0% | x | 6.0% | x | x | 1.1%
COc1ccc(-c2nc(CN3CCC(C(=O)NCc4ccccc4)CC3)c(C)o2)cc1OC | -15.1% | 14.9%[46.1 µM] | x | 6.1%[46.1 µM] | x | -4.3% | 0.8% | x
O=C(Cn1nc(-c2ccccc2)c2ccccc2c1=O)Nc1ccc(F)cc1 | -10.9% | 1.3% | 1.0% | -1.7% | 5.3% | x | x | 0.3%
CCc1nn(CC(=O)NCc2ccccc2Cl)c(=O)c2cc3ccccc3n12 | -11.4% | x | x | -26.2%[46.1 µM] | x | 7.0% | 1.6% | x
O=C(NCCOc1ccccc1)C(=O)NCC1CCCO1 (stereo not given) | 17.0% | 2.7%[46.1 µM] | 0.4% | 20.0%[46.1 µM] | 0.6% | x | x | -0.1%
Cc1ccc(S(=O)(=O)/N=C2\CN(C)C(=O)N2C)cc1 | -3.7% | -3.5% | -0.9% | -27.8% | 19.4% | 2.5% | 1.3% | 13.2%
O=[N+]([O-])c1cc(-c2nnc(-c3ccccc3)o2)ccc1Oc1ccc(Cl)cc1 | 28.8% | 10.9% | 10.1% | u | 8.7% | u | 1.6% | 6.7%
COc1ccc(-c2nc3ncccn3c2Nc2ccc3c(c2)OCCO3)cc1 | 32.6%[activator] | x | x | 0.0% | 5.0% | -16.1% | -1.2% | x
COc1cc(NC(=O)c2ccnc(N)c2)cc(C(=O)Nc2cccc(C(F)(F)F)c2)c1 | -7.4% | x | 6.3% | x | 4.5% | x | x | 0.6%
Cc1ccc(-c2noc(-c3nnn(CC(=O)Nc4cc(Cl)ccc4C)c3N)n2)cc1 | 13.7% | 22.6%[46.1 µM] | x | x | x | 6.5% | -1.2% | x
CCOC(=O)C1CCCN(S(=O)(=O)c2cc(C(=O)OC)n(C)c2)C1 (stereo not given) | u | x | -11.1% | x | -0.1% | x | x | 5.0%
COc1cccc2cc3c(=O)n(-c4ccccc4)nc-3oc12 | 9.2% | x | 0.6% | -0.7% | -48.5% | u | 2.7% | -0.3%
Cc1ccccc1CSCCNC(=O)CN(c1ccc2c(c1)OCO2)S(C)(=O)=O | -18.4% | u | 4.3% | -1.3% | -16.5% | 18.3% | -2.7% | -2.8%
CCCC(O)(CCN(C)C)c1ccc(OC)cc1 (stereo not given) | -16.8% | -0.3% | -0.5% | -6.4% | -7.3% | 1.1% | 9.2% | -4.1%
O=C(N/N=C\c1ccc(Cl)cc1)c1sccc1-n1cccc1 | -9.4% | -9.5% | -5.0% | u | -10.6% | 6.2% | -0.1% | 2.5%
O=C(COc1ccccc1)N1CCN(CC2CC3C=CC2C3)CC1 (stereo not given) | x | -32.4% | 5.4% | 1.5% | -1.8% | -1.3% | -2.2% | -1.0%
COc1ccc(NC2CCCN(C(=O)c3cccnc3)C2)cc1 (stereo not given) | -15.3% | x | -1.7% | x | 1.2% | x | x | -3.7%
O=C(O)COCc1nc2ccccc2[nH]1 | 19.6% | -4.9% | 12.8% | 8.1% | -10.0% | 0.3% | 3.9% | -0.7%
CN(C)S(=O)(=O)c1ccc(Cl)c(NC(=O)COC(=O)CN2C(=O)C3CCCCC3C2=O)c1 (stereo not given) | -11.0% | u | 18.7% | -5.7%[46.1 µM] | -2.6% | x | x | 1.5%
O=C(c1cnc2c(c1)COc1ccc(Cl)cc1-2)c1ccccc1O | 10.0%&-21.5% | 1.7%[46.1 µM] | 10.5% | u | 8.1% | -11.2% | -5.6% | -12.2%

Additional results follow:
SMILES | StopGo reporter | Lassa entry inh | RE007 growth inh | MARV entry inh | NS1 function inh | Cruzain inh noDet | Cruzain Triton | SARS PLP yeast
COc1cccc(CC(=O)N[C@@H](CCSC)c2nc3ccccc3[nH]2)c1 | -10.9% | u | -15.1% | -3.3%[46.1 µM] | x | x | x | -3.4%
COc1ccc(CNC(=O)COC(=O)CCOc2ccc(C)cc2)cc1OC | 1.9% | 8.9% | 5.9% | 2.1% | x | x | x | 0.4%
COc1ccc(NC(=O)CN(C)C(=O)c2sc3ccccc3c2Cl)cc1 | -0.2% | u | 5.3% | 21.2% | x | x | x | -5.2%
COc1ccc(C2CC(c3cccs3)=NN2C(=O)COC(=O)c2cncc(Br)c2)cc1OC (stereo not given) | -20.4% | x | 5.4% | -14.5%[46.1 µM] | 9.2% | x | x | -2.2%
O=C(CCN1C(=O)/C(=C/C=C/c2ccccc2)SC1=S)Nc1ccccn1 | -11.1% | u | -21.2% | -28.9% | x | x | x | 0.8%
O=C(NC(Cc1ccccc1)C(=O)O)/C(=C/c1ccccc1)NC(=O)c1cccc(Br)c1 (stereo not given) | -8.5% | 6.1% | -2.2% | 15.3%[46.1 µM] | x | x | x | -0.4%
Cc1sc2ncnc(N3CCOCC3)c2c1C | u | 2.3% | -2.5% | 6.6% | -5.1% | -2.9% | 2.0% | -4.7%
Cc1cc(C(=O)CSc2nnnn2-c2ccc(O)cc2)c(C)n1C | 19.1% | u | 1.4% | -22.0%[46.1 µM] | x | x | x | -0.4%
CC(=O)Nc1ccc(S(=O)(=O)N2CCC(NC(=O)c3ccccc3)CC2)cc1 | -21.4% | x | 1.7% | x | 5.6% | x | x | 0.1%
CC(=O)N1CCc2c(sc3c2c(=O)n(CCc2ccccc2)c(=O)n3CC(=O)Nc2ccccc2F)C1 | 0.3% | x | x | -12.7%[46.1 µM] | x | u | -4.2% | x
Cc1nc2nc(-c3ccccc3)[nH]n2c(=O)c1Cc1ccccc1 | 28.6% | -16.4% | 10.2% | 5.3% | 11.1% | -26.4% | -9.9% | u
O=C(N/N=C/c1cccs1)C1COc2ccccc2O1 (stereo not given) | x | u | 2.5% | -19.1% | -7.8% | 0.5% | -6.1% | -2.5%
COc1ccc(N2C(=O)C(F)(F)C2c2ccc(C)cc2)cc1OC (stereo not given) | -13.6% | -2.9%[46.1 µM] | -4.5% | -11.3%[46.1 µM] | x | x | x | 0.0%
O=C(NN1CCOCC1)c1ccc(F)cc1 | -12.3% | x | -7.8% | x | -9.8% | x | x | 1.3%
NC(=S)N/N=C/c1ccccc1OCCSc1ccc(Cl)cc1 | 35.5µM* | 3.66µM* | 7.6% | u | 10µM* | 1µM* | 1.41µM* | 11.1%
Cc1ccc(S(=O)(=O)NCCC(=O)N2CC(C)OC(C)C2)cc1 (stereo not given) | 1.0% | -1.9% | -5.0% | -5.2% | x | x | x | -6.8%
CC(C)CCNC(=O)CN1C(=O)CCn2nc(-c3cn(C)c4ccccc34)cc21 | -13.0% | 0.3%[46.1 µM] | x | x | x | u | -3.9% | x
COc1ccc(C2(C(=O)NC(C)C)CCCC2)cc1OC | -2.4% | -9.1% | -6.0% | 13.1% | 18.8% | 6.2% | 4.4% | -4.6%
Cc1ccc(-c2ccnc3c(Cl)c(C)nn23)cc1 | -16.3% | -19.8%[46.1 µM] | -5.4% | -1.1%[46.1 µM] | 2.2% | x | x | -0.9%
CCOc1ccc(S(=O)(=O)Nc2cccc(C(=O)NCC3CCCO3)c2)cc1 (stereo not given) | -22.7% | 2.3% | 9.0% | u | x | x | x | -1.8%
Cc1ccc(NC(=O)c2oc3ccc(S(=O)(=O)N4CCCCCC4)cc3c2C)c(C)c1 | -24.7% | -1.7%[46.1 µM] | x | x | x | 3.9% | 4.4% | x
O=c1c2ccccc2c(C=NCCO)c(O)n1-c1ccccc1 | 12.7% | -1.3% | -21.8% | 12.2%[46.1 µM] | -7.3% | -4.8% | -3.7% | u
Cc1ccc(NC(=O)c2ccc3c(c2)OCCO3)cc1C | 12.6µM* | u | -22.6% | u | -64.5% | x | x | -5.6%
C=CCN1C(=O)c2ccc(C(=O)N(C)CC(=O)Nc3ccc(Br)cc3C)cc2C1=O | -20.5% | -1.8% | -5.9% | 0.3%[46.1 µM] | x | x | x | -0.2%
COc1ccccc1CNS(=O)(=O)c1cc2c3c(c1)CCN3C(=O)CC2 | 7.2%&-9.3% | 12.0% | 20.2% | -2.3%&-2.3% | x | -12.2% | -0.3% | -0.6%
Cc1ccc(OCCSc2ncnc3nc[nH]c23)cc1 | -10.9% | u | 12.5% | u | -53.1% | 8.0% | 0.9% | -25.7%
Cc1cccc(NC(=O)Cn2cc(C(=O)c3ccco3)c3ccccc32)c1C | 0.0% | -24.7%[46.1 µM] | x | u | x | 15.9% | -11.1% | x
COc1ccc(-c2nn(Cc3ccccc3)cc2C(=O)NC2CC2)cc1OC | -12.9% | -0.6% | -6.3% | u | x | x | x | 7.6%
Cc1ccc(-n2nc3c(c2NC(=O)c2ccc4c(c2)OCO4)CS(=O)(=O)C3)cc1C | -12.8% | 2.3% | 7.5% | 26.9% | 11.9% | x | x | 2.5%
COc1ccccc1CN1CC(C(=O)NCC2CCCO2)CC1=O (stereo not given) | x | -18.5% | -9.9% | 2.2% | -0.9% | 8.8% | -0.3% | -4.7%

Bioassay records as filed in PubChem.

Compounds as they come. Share with any hit: about 4.7%.
